Screens from PubChem BioAssay.
HSD17B inh: HSD17B dehydrogenase inhibition; Q99714; recombinant HSD17B10, NADH fluorescence kinetic; many of its hits are not listed in these tables; Potency, µM (top dose mostly 57.1 µM), for inactives: at the top dose activity change, negative = inhibition, most hits filed as inhibitors; hit rate 7.6% among 75,000; active means well fitted inhibition curve with a large enough effect; inconclusive means small, poorly fitted or top-dose-only effect; inactive means no such curve, though single readings can be large or run the other way;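 further: the protocol describes HADH2 (HSD17B10) and not the HSD17B4 of the title; nearly all actives have a fitted effect of over 70% in size; most hits overshoot -100% by far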
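Enzyme plus compound, 15 min room temperature; substrate mix added (NAD+ 1 mM, beta-hydroxybutyryl-CoA 90 uM final); plates read kinetically for NADH fluorescence. HADH2 was His-tagged, E. coli-derived, 20 nM.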
* = called active by the depositor; i = inactive; ? = inconclusive; [ ] = another dose, or the depositor's remark. On the % scale 0 is the no-effect control and ±100 the full control effect; potency means the concentration at half of the fitted maximal effect. Not all compounds are listed; rates above refer to the full screens.

SMILES | HSD17B inh
CN(C)CCSc1nnc(-c2ccccc2)o1 | 8%
Cn1nnnc1SCC1=C(C(=O)O)N2C(=O)C(NC(=O)C(OC=O)c3ccccc3)C2SC1 (stereo not drawn) | ?
Cc1cccnc1Nc1nc(-c2ccc(O)cc2O)cs1 | -10%
CSc1ccccc1NC(=O)c1cnccn1 | -1%
Nn1c(Nc2ccccc2)nc2sc3c(c2c1=O)CCC3 | ?
CCn1ncc(Br)c1C(=O)Nc1cc(C(=O)OC)ccc1C(=O)OC | -13%
C[C@@H](C(=O)N[C@@H](CO)Cc1ccccc1)[C@@H]1C[C@@]1(C)[C@@H](NC(=O)OCc1ccccc1)c1ccccc1 | -6%
N#Cc1nc(Cc2cccc3ccccc23)oc1N1CCOCC1 | -6%
Cc1cnc(CNc2ncncc2-c2ccc(C(=O)N(C)C)cc2)cn1 | -3%
Cc1cc(C(=O)CSc2nnc(-c3ccncc3)n2-c2ccccc2)c(C)n1C | ?
O=C(CSc1nnc(-c2ccc(OC(F)F)cc2)o1)N1CCOCC1 | -3%
CCOc1ccc(-c2cc3nc(C4CCN(C(=O)OC(C)(C)C)CC4)c(C(=O)O)cn3n2)cc1 | 32µM*
CC1=CC(=O)CC(C)(C)[C@]1(O)/C=C\C(C)=C\C(=O)O | 2%[11.4 µM]
COc1ccc2oc(=O)c(C(=O)N3CCCc4ccccc43)cc2c1 | 4%
COC(=O)C(CCCCN1C(=O)C2C3C=CC(C3)C2C1=O)N1C(=O)C2C3C=CC(C3)C2C1=O (stereo not drawn) | 4%
Clc1cccc(Cl)c1Cn1nnc(-c2cccs2)n1 | 10%
c1ccc(-n2c(SCc3ccncc3)nnc2-c2ccco2)cc1 | -7%
CC1(C)CC(=O)N(CC(=O)N2CCN(c3ncccn3)CC2)c2ccccc2S1(=O)=O | -19%
O=C(O)CNC(=O)c1ccccc1O | 3.2µM*
CCOC(=O)N1CCC(NC(=O)c2cccc3c2C(=O)N(Cc2cccnc2)C3)CC1 | 3%
Cc1cccc(C)c1OCc1nnc(SCC(=O)NCc2ccccc2)o1 | -1%
CC1CCc2sc3nc(NCc4ccco4)n4ncnc4c3c2C1 (stereo not drawn) | -18%
COc1ccc(CN2CCN(C(=O)C3CC(=O)N(C4CCCCCC4)C3)CC2)c(OC)c1OC (stereo not drawn) | 0%
CC(C)NC(=O)N1CCCC2(CCN(C(=O)c3cc(C(F)(F)F)cc(C(F)(F)F)c3)CC2)C1 | 11%
N#Cc1ccc(CSc2nnc(Nc3ccccc3)s2)cc1 | -7%

(listing goes on)
SMILES | HSD17B inh
CCCS(=O)(=O)N1CCCC(C(=O)NC(C)c2ccc3c(c2)OCCO3)C1 (stereo not drawn) | 5%
O=c1cc(-c2ccc(O)cc2)oc2cccc(O)c12 | 2%
O=C1N(Cc2ccc3c(c2)OCO3)c2ccccc2C1(O)c1c[nH]c2ccccc12 (stereo not drawn) | ?
CN(c1ccccc1)S(=O)(=O)c1ccc(C(=O)OCC(=O)N2CCOCC2)cc1 | -2%
O=C(NCc1ccc2c(c1)OCO2)c1ccc(CS(=O)(=O)c2ccc(Br)cc2)o1 | -1%
COc1ccc2nc3sc(C(=O)N4CCN(C)CC4)cc3cc2c1 | 25µM*
CC(O)c1ccc2c(c1)OCCOCCN(C)CCOCCO2 (stereo not drawn) | 2%
CCCC(=O)N(c1ccc2oc(=O)sc2c1)S(=O)(=O)c1ccccc1 | 25µM*
CCCC/C=C/C(NC(=O)Oc1cccc(C(F)(F)F)c1)c1ccccc1 (stereo not drawn) | -17%
CCn1c(=N)n(CCO)c2ccccc21 | 5%
O=C(NCc1ccc2c(c1)OCO2)C1CCCN(S(=O)(=O)c2cccnc2)C1 (stereo not drawn) | -5%
CCOC(=O)C1(O)CSc2nc3sc(C(=O)O)c(C)c3c(=O)n21 (stereo not drawn) | -22%
COc1c(C(=O)N2CCCC2)ccc2ccccc12 | 5%
CCc1cc(C(=O)OC)c(NC(=O)c2cc(Br)cs2)s1 | i
CSc1ccc(C=O)cc1 | 6%
c1ccc(C(c2ccccc2)N2CC[C@@]3(CCCNC3)C2)cc1 | -8%
COCc1cc(C)nc(Nc2ccccc2C)c1C#N | 15%
O=C(CCCNS(=O)(=O)c1cccc2nsnc12)NC1CCCCC1 | -12%
CCOC(=O)c1c(NC(=O)CN2CCCCC2)sc2c1CCN(C(=O)OCC)C2 | -24%
O=C1C2CCCN2C(c2ccc(Cl)cc2)N1c1nccs1 (stereo not drawn) | 6%
CCOC(=O)Nc1ccc(S(=O)(=O)Nn2cnnc2)cc1 | -1%
CCN(CC)C(=O)CSc1nnc(-c2ccccc2)n1N | ?
COC1C(O)C(CO)OC1n1cnc2c(=O)[nH]c(N)nc21 (stereo not drawn) | -2%
CN(CCCC(=O)NCc1ccco1)S(=O)(=O)c1ccccc1 | -3%
O=C1CSC(c2nn(-c3ccccc3)cc2-c2cc3ccccc3oc2=O)N1Cc1ccco1 (stereo not drawn) | 32µM*

Nothing new here: entries from further up.
SMILES | HSD17B inh
CCCS(=O)(=O)N1CCCC(C(=O)NC(C)c2ccc3c(c2)OCCO3)C1 (stereo not drawn) | 5%
O=c1cc(-c2ccc(O)cc2)oc2cccc(O)c12 | 2%

Quoted from the listing.
O=C1CSC(c2nn(-c3ccccc3)cc2-c2cc3ccccc3oc2=O)N1Cc1ccco1 (stereo not drawn) in HSD17B inh is entered as 32µM*
CCn1c(=N)n(CCO)c2ccccc21 in HSD17B inh is entered as 5%
CN(CCCC(=O)NCc1ccco1)S(=O)(=O)c1ccccc1 in HSD17B inh is entered as -3%
CC(O)c1ccc2c(c1)OCCOCCN(C)CCOCCO2 (stereo not drawn) in HSD17B inh is entered as 2%

Remaining list, next part.
SMILES | HSD17B inh
CCCC(CCC(=O)NC1CCCCC1)C(=O)O (stereo not drawn) | 12%
O=C(NCc1ccccc1)C1CC2CCCC(C1)C2=O (stereo not drawn) | -6%
Cc1cc(C)nc(N(C#N)Cc2ccc(Br)cc2)n1 | 3%
Cc1cc(=O)[nH]c(SCC2COC3(CCCCC3)O2)n1 (stereo not drawn) | 15%
Cc1ccc(C(=O)Nc2nccs2)cc1S(=O)(=O)N1CCCCC1 | -12%
CCOC(=O)N1CCC(N(CCCOC)C(=O)Nc2ccc(CC)cc2)CC1 | 7%
Cc1ccc(CNC(=O)c2oc3ccc(S(=O)(=O)N4CCC5(CC4)OCCO5)cc3c2C)cc1 | 0%
Cc1c(CN2CCCCC2C)c(=O)n(-c2ccccc2)n1C (stereo not drawn) | 8%
CCCNS(=O)(=O)c1ccc(CCC(=O)N2CCOCC2)cc1 | 6%
O=C(O)CCCCCN1C(=O)CSC1=S | 4%
CC(NC(=O)c1cccs1)C(c1cccs1)N1CCOCC1 (stereo not drawn) | 13%
CCOC(=O)c1cnc(SCC(=O)Nc2ccccc2N2CCOCC2)nc1N | 2%
O=C(Cn1nc(Cc2ccncc2)c2ccccc2c1=O)N1CCN(C(=O)c2ccco2)CC1 | 1%
Cn1cccc1Cc1nnc(SCC(=O)NC2CCCCC2)n1CCc1ccccc1 | 15%
CC(C)(O)C#Cc1ccc(C(=O)N2CCC(C(N)=O)(N3CCCCC3)CC2)cc1 | -18%
CC(C)(CO)NS(=O)(=O)c1ccc2c(c1)oc(=O)c1cc(S(=O)(=O)NC(C)(C)CO)ccc12 | -5%
COc1ccc(C2C(C(C)=O)=C(C)N=c3s/c(=C\c4ccco4)c(=O)n32)c(OC)c1 (stereo not drawn) | -8%
Cc1ccc(C)c(-n2c(CNc3ccc(F)cc3)nnc2SCC(N)=O)c1 | 0%
O=C(CCNS(=O)(=O)c1cccc2nsnc12)N1CCN(c2ccccn2)CC1 | -1%
Nc1ccc2oc(CCc3ccccc3)nc2c1 | ?
CN(C(=O)c1ccccc1Cl)C1CCCCC1 | 5%
Fc1ccccc1N1CCN(C(c2ccccn2)c2nnnn2C2CCCCC2)CC1 (stereo not drawn) | -5%
COc1ccc(CCNC(=O)c2ccc3c(=O)n(Cc4ccco4)c(=S)[nH]c3c2)cc1OC | ?
O=C1c2ccccc2C(=O)C1c1ccncc1 | 0%
CCCn1c(=O)[nH]c(=O)c2c1nc(-c1ccc3c(c1)OCCO3)n2CCN1CCOCC1 | ?

The list continues:
SMILES | HSD17B inh
COc1ccc(N(C(=O)c2ccccc2OC)C2C=CS(=O)(=O)C2)c(OC)c1 (stereo not drawn) | 1%
Cc1cc(C(=O)N2CCc3ccccc32)c2ccccc2n1 | 8%
CCCCCCC1C(C#N)=C(N)OC2=C1C(=O)CC(C)(C)C2 (stereo not drawn) | -21%
O=C(NCc1ccco1)C1CCCN(S(=O)(=O)c2cnc[nH]2)C1 (stereo not drawn) | 2%
Cc1ccccc1Nc1nc(N)nc(COC(=O)CCS(=O)(=O)c2ccccc2)n1 | 2%
O=S(=O)(Cc1ccc(Cl)cc1)N1CCN(Cc2ccccc2)CC1 | 7%
Cn1c(=O)n(C)c2cc(CN3C(=O)OC(C)(C)C3(C)O)ccc21 (stereo not drawn) | 9%
COC(=O)C(C(=O)OC)[C@@H]1CCCC(=O)C1 | 9%[11.4 µM]
O=C(CCSc1nnc2ccccn12)Nc1ccc(F)cc1 | 25µM*
Oc1ccc(Nc2nc(NCC3CCCO3)c3ccccc3n2)cc1 (stereo not drawn) | -23%
O=C(Nc1ccccc1N1CCCCC1)c1cccs1 | -30%
O=C(O)[C@H](Cc1ccccc1)N1C(=O)c2ccccc2C1=O | 5%[11.4 µM]
COc1cccc(C2CC(c3ccccc3)Nc3nc(N)nn32)c1 (stereo not drawn) | ?
Nc1ccccc1SCc1cn2cccnc2n1 | -8%
COCc1nnc(NC(=O)CCc2ccccc2)s1 | 0%
O=C(Nc1ccc2nn(-c3ccccc3)nc2c1)c1ccc(Br)o1 | 25µM*
CCC1(C)C2(C#N)C(N)=NC(OC)(OC)C12C#N (stereo not drawn) | 3%
Cn1c(C(=O)OC(C(=O)NC2CCCC2)c2ccncc2)cc2sccc21 (stereo not drawn) | 0%
CCS(=O)(=O)N1Cc2ccccc2CC1C(=O)Nc1nc2ccccc2[nH]1 (stereo not drawn) | 2%
COc1ccccc1-n1nc(C(=O)Nc2ccc3c(c2)OCO3)c2ccccc2c1=O | 15%
CN(C)Cc1nc2ccccc2c(=O)n1Cc1nc(C(C)(C)C)cs1 | -22%
O=C(NCCCN1CCOCC1)C(C(=O)c1ccccc1)n1ccccc1=O (stereo not drawn) | 5%
CO[C@H]1COC(=O)C/C=C\[C@H](C)[C@@H](OC)COC(=O)[C@@H](C)NC(=O)C/C=C\[C@@H]1C | 1%[11.4 µM]
Cn1cccc1C(=O)NC(=O)CSc1nc2ccccc2s1 | -4%
Cc1ccc(CNC(=O)Nc2cccs2)cc1 | -25%

The final 4 compounds of the section above come first, to join the parts:
SMILES | HSD17B inh
O=C(NCCCN1CCOCC1)C(C(=O)c1ccccc1)n1ccccc1=O (stereo not drawn) | 5%
CO[C@H]1COC(=O)C/C=C\[C@H](C)[C@@H](OC)COC(=O)[C@@H](C)NC(=O)C/C=C\[C@@H]1C | 1%[11.4 µM]
Cn1cccc1C(=O)NC(=O)CSc1nc2ccccc2s1 | -4%
Cc1ccc(CNC(=O)Nc2cccs2)cc1 | -25%
CCC(C)(C)n1nnnc1C(c1ccc(O)c(OC)c1)N1CCN(c2nc3ccccc3s2)CC1 (stereo not drawn) | -7%
Cc1cc2c(=O)n(C)c(SCC(=O)c3cc4ccccc4o3)nc2s1 | 1%
CN1CCN(c2ccccc2NC(=O)Cc2cn(C)c3ccccc23)CC1 | 7%
O=C(COC(=O)Cc1cn2ccsc2n1)NCc1ccc2c(c1)OCO2 | -1%
O=C(NCCCn1ccnc1)c1noc2c1CCCC2 | -3%
Cc1c(-c2nc(N)nc(Nc3ccc(F)cc3)n2)oc2ccccc12 | 8%
COc1ccccc1N(CC(=O)NCCc1ccccc1)S(C)(=O)=O | 3%
O=C(NCCCN1CCOCC1)C1CC(=O)N(CCc2ccccc2)C1 (stereo not drawn) | 2%
Cc1ccc(NC(=O)C2CCCN(S(=O)(=O)c3cnc[nH]3)C2)cc1F (stereo not drawn) | 5%
Cc1ccc(OCc2nc(-c3ccccn3)no2)c(Br)c1 | 7%
CCCCNN | 7%[11.4 µM]
O=C(Cn1nnc(-c2ccncc2)n1)N(C1CCCCC1)C1CCCCC1 | 3%
COc1ccc2[nH]cc(CC(N)C(=O)O)c2c1 (stereo not drawn) | 6%
C/C=C(/C)C(=O)OC1Cc2c(ccc3ccc(=O)oc23)OC1(C)C (stereo not drawn) | ?
CCN(CC)CCNc1ccc(CO)c2sc3ccccc3c(=O)c12 | 0%
Cc1ccc(-c2nnc(SCC(=O)O)n2N)cc1 | 7%
COCCn1c(COc2ccc(C)cc2)nc2ccccc21 | 0%
CCOC(=O)Cn1cc(-c2ccccc2)nn1 | 1%
CC(=O)c1ccc(OC2C=CC(c3ccc(Cl)cc3)OC2CO)cc1 (stereo not drawn) | 4%[11.4 µM]
Cc1nc(N2CCOCC2)c2nc(-c3ccccc3)n(CCCN3CCOCC3)c2n1 | 20µM*
CCOc1ccc(N(CC(=O)N2CCN(c3ccccc3)CC2)S(=O)(=O)c2c(C)noc2C)cc1 | -4%
COc1ccc(S(=O)(=O)N2CCc3ccccc32)cc1C(=O)OCc1nnc(-c2ccccc2)o1 | -6%
COc1cccc(NC(=O)Nc2cccs2)c1 | 25µM*
CCCc1nnc(NC(=O)CCC(=O)N2CCCCC2CC)s1 (stereo not drawn) | 5%
Cc1ccc(C)n1-n1c(C)nc2sc3c(c2c1=O)CCCCC3 | -4%
O=C(Nc1nc(-c2ccc3c(c2)OCO3)cs1)c1ccncc1 | -11%

3 entries from above, sorted by heavy-atom count, smallest number first.
SMILES | HSD17B inh
CCOC(=O)Cn1cc(-c2ccccc2)nn1 | 1%
O=C(NCCCn1ccnc1)c1noc2c1CCCC2 | -3%
C/C=C(/C)C(=O)OC1Cc2c(ccc3ccc(=O)oc23)OC1(C)C (stereo not drawn) | ?
